Bst PK mod – alters activity of Bacillus stearothermophilus pyruvate kinase | partly purified Bacillus stearothermophilus pyruvate kinase, luminescence ATP production; ribose 5-phosphate activator present at AC10 | Potency, µM | 1.2% of 51,000 active; in the data active means potency below about 11 µM; inconclusive means mostly about 12 µM to 25 µM; inactive means weaker than that;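 the screen sought inhibitors and activators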;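 also: potency is read from the fitted curve at half-maximal effect; scaled between full activation by ribose 5 phosphate and full inhibition by luteolin; about four in five hits inhibit and the cells do not say which; series up to 57 µM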
TsaE inh – YjeE (TsaE) inhibition, E. coli. P0AF67. AID 605. purified YjeE, fluorescence polarisation of a bound ADP probe. 0.05% of 71,000 active. Potency, µM; active = well fitted falling curve; inconclusive = weaker or top-dose-only fall, or a rising curve; inactive = flat or poorly fitted curve;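 also: top concentration of the series not given in the record; excess ADP was the control for the full effect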
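Purified YjeE (10 uM) with BODIPY Texas Red-labeled ADP probe (2 uM); compounds pin-transferred, 15 min at room temperature. Binding inhibition read as decreased fluorescence polarization; ADP titration as control.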
Numbers without * were called inactive; i = inactive; ? = inconclusive; . = not tested or not shown. These rows are one share of the data; the hit share may differ from the screen's.

Structure,Bst PK mod,TsaE inh
O=C1c2ccccc2S(=O)(=O)N1CC(O)COc1ccc(Cl)cc1 (stereo not drawn),>11,.
O=c1[nH]c2cc(Cl)ccc2c(O)c1-c1cccc(Oc2ccccc2)c1,.,i
CCOc1ccccc1C1C(C#N)=C(N)Nc2onc(-c3ccccc3)c21 (stereo not drawn),>57,i
Cc1ccc(S(=O)(=O)Cn2nnnc2C(C(C)C)N2CCN(Cc3ccco3)CC2)cc1 (stereo not drawn),>57,i
COC(=O)COc1ccc(S(=O)(=O)Nc2ccc(C(N)=O)cc2)cc1,>57,i
O=C(c1cc(-c2ccncc2)nc2ccc(Br)cc12)N1CCN(c2ccccn2)CC1,?,i
Cc1csc(NC(=O)CSc2nnc(-c3ccncc3)n2C)n1,>57,i
COc1ccccc1N1CCN(C(=O)c2ccc(S(=O)(=O)N3CCCCCC3)cc2)CC1,>57,i
O=C(CSc1nnc(-c2ccccc2)n1Cc1ccccc1)N1CCCC1,>57,i
COC(=O)CCC(=O)Nc1cccc(Br)c1,>57,i
N#Cc1cccc(NC(=O)N2CC[C@@]3(CCCN(C(=O)c4cc(C(F)(F)F)cc(C(F)(F)F)c4)C3)C2)c1,.,i
COc1cc(C(=O)NC2CCN(Cc3nnnn3Cc3cccs3)CC2)cc(OC)c1OC,>57,i
N#Cc1sc2nc3c(c(-c4cccnc4)c2c1N)CCC3,>57,i
CCS(=O)(=O)N1CCCC(C(=O)NCCCN2CCCC2=O)C1 (stereo not drawn),>57,i
COc1ccc(CCN2CC(O)=C(c3nc4ccccc4c(=O)[nH]3)C2=N)cc1OC,>57,i
CCCc1nc(N2CCCC2)c(C#N)c2c1CCCC2,>26,.
CCOC(=O)C1CCCN(C(=O)c2c(-c3ccccc3Cl)noc2C)C1 (stereo not drawn),>57,i
COc1cccc(C(=O)NC2=NCCS2)c1,i,i
Cc1noc(C)c1CSc1nnc2cc(C)c3ccccc3n12,>57,i
CC(C)OC(=O)Nc1ccc(Oc2c(F)c(F)c(F)c(F)c2F)cc1,>57,i

14 of these compounds, reformatted.
Order of results: Bst PK mod | TsaE inh
> Cc1csc(NC(=O)CSc2nnc(-c3ccncc3)n2C)n1
  >57 | i
> COc1ccccc1N1CCN(C(=O)c2ccc(S(=O)(=O)N3CCCCCC3)cc2)CC1
  >57 | i
> O=C(CSc1nnc(-c2ccccc2)n1Cc1ccccc1)N1CCCC1
  >57 | i
> COC(=O)CCC(=O)Nc1cccc(Br)c1
  >57 | i
> N#Cc1cccc(NC(=O)N2CC[C@@]3(CCCN(C(=O)c4cc(C(F)(F)F)cc(C(F)(F)F)c4)C3)C2)c1
  . | i
> COc1cc(C(=O)NC2CCN(Cc3nnnn3Cc3cccs3)CC2)cc(OC)c1OC
  >57 | i
> N#Cc1sc2nc3c(c(-c4cccnc4)c2c1N)CCC3
  >57 | i
> CCS(=O)(=O)N1CCCC(C(=O)NCCCN2CCCC2=O)C1 (stereo not drawn)
  >57 | i
> COc1ccc(CCN2CC(O)=C(c3nc4ccccc4c(=O)[nH]3)C2=N)cc1OC
  >57 | i
> CCCc1nc(N2CCCC2)c(C#N)c2c1CCCC2
  >26 | .
> CCOC(=O)C1CCCN(C(=O)c2c(-c3ccccc3Cl)noc2C)C1 (stereo not drawn)
  >57 | i
> COc1cccc(C(=O)NC2=NCCS2)c1
  i | i
> Cc1noc(C)c1CSc1nnc2cc(C)c3ccccc3n12
  >57 | i
> CC(C)OC(=O)Nc1ccc(Oc2c(F)c(F)c(F)c(F)c2F)cc1
  >57 | i

Other compounds.
Structure,Bst PK mod,TsaE inh
CCOC(=O)c1ccc(CNC(=O)c2n[nH]c(=O)c3ccccc23)o1,>57,i
Cc1ccc(S(=O)(=O)Cc2ccc(C(=O)N3CCCC3)o2)cc1,.,i
CCOC(=O)C(C)(C)[C@H](O)C(C)C,.,i
CCn1c(SCC(=O)O)nnc1C1CCCCC1,>57,i
CCOC(=O)CCCCC(=O)c1[nH]c(=O)[nH]c1Cn1ccnc1,>57,i
O=C(Cn1nc(Cc2cccnc2)c2ccccc2c1=O)NCC1CCCO1 (stereo not drawn),.,i
Cc1ccc2c(c1)cc(CN(Cc1ccc3c(c1)OCO3)C(=O)c1cnccn1)c1nnnn12,>57,i
CC(C)(C)C1CCC2(CC1)C(C#N)=C(SCC(=O)Nc1ccccc1)NC(=O)C2C#N (stereo not drawn),>26,.
CC1CCN(S(=O)(=O)c2ccc3c(c2)c(=O)c(C(=O)NC2CCCC2)cn3C)CC1,>57,i
O=c1oc2ccccc2c(O)c1CN1CCCCC1,>57,i
Cn1c(C(=O)NCC2CCCO2)cc2c(=O)n(C)c3ccccc3c21 (stereo not drawn),.,i

Screening data deposited in PubChem BioAssay by National Center for Advancing Translational Sciences (NCATS).
